RanGTP-Imp inh = inhibitors of RanGTP-importin-beta interaction, primary screen, biochemical, FRET, CFP-Ran, YFP-importin-beta, homogeneous; cell-free CFP-Ran/YFP-importin-beta FRET ratio; Ran GTPase (GTP-bound) - importin-beta complex; actives 1.1% (n = 300,000); inhibition, % (test concentration not listed);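 active means most replicates above 15%; inconclusive means exactly half above 15%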;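 further: 0% = DMSO wells and 100% = Ran loaded with GDP instead of GTP; wells of about 40 µL received 100 nL stock; the first replicate is given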
MLL AF4-AF9 inh = inhibitors of AF4 peptide binding to AF9, primary screen, biochemical, AlphaScreen, biotin-AF4 peptide, FLAG-AF9, single point | Protein AF-9 (Homo sapiens), P42568 | actives 0.47% (n = 350,000) | inhibition, % at 10 µM;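 active means every replicate reaching a set inhibition limit, whatever the replicate mean, cut at about 25% in these data; inconclusive means mean inhibition reaches that limit but some replicates miss it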;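 further: 0% = plate neutral control median and 100% = total signal loss; the record names both 10 and 1 µM as test concentration; the first replicate is given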
Vif TR-FRET = inhibitors of Vif binding to APOBEC3G peptide, primary screen, biochemical, TR-FRET, GST-Vif 1-94, biotin-A3G peptide, dose response retest (AID 1117319); actives 0.57% (n = 260,000); inhibition, %; hits with a dose series show IC50 in µM; Virion infectivity factor (Human immunodeficiency virus type 1 group M subtype B (isolate …; TR-FRET GST-Vif / biotin-A3G peptide binding; higher % means a stronger effect; test concentration not given here; strong numbers were not always called active;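 active means above the screen mean plus three standard deviations and confirmed in dose response; inconclusive means results disagree or hit not tested in dose response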;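 further: Vif residues 1-94 fused to GST binding biotinylated APOBEC3G peptide 110-148; 0% = full assay without inhibitor and 100% = GST in place of GST-Vif; retest series ran down from 100 µM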
Beta apoptosis = inhibitors of cytokine-induced beta cell apoptosis, primary screen, luminescence; AID 435005, 2010; INS-1E cytokine-induced death, ATP luminescence, 48 h; percent of positive-control rescue, neutral wells zero; actives 0.8% (n = 300,000); protection from apoptosis, % (no concentration beside the values);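 active means all replicates at 75% or more, or half of them and the mean; inconclusive means half reach 75% but not the mean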;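 further: 0% = cytokine-treated negative control wells and 100% = positive control rescue; higher means more ATP so stronger rescue from cytokine killing; wells of about 40 µL received 100 nL stock; the first replicate is given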
T cruzi repl = inhibitors of intracellular T. cruzi growth, primary screen, luminescence, NIH3T3 host cells; inhibition, % (concentration not given with the values); actives 1.4% (n = 300,000); T. cruzi beta-gal in NIH3T3, 90 h; AID 1885, 2009;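 active means mean inhibition across valid replicates above about 55%, limit read from the data; inconclusive means mean below that limit but half or more replicates reach it; inactive means mean below it, under half of replicates reach it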;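 further: signal also drops with host cell toxicity which is not excluded here; 0% = plate median of DMSO wells and 100% = zero luminescence signal; higher percent means less beta-gal luminescence so fewer parasites; stock transfer was 50 nL into about 50 µL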
Calb FLC = C. albicans growth inhibition with fluconazole, primary screen, CaCi-2 strain, Alamar Blue fluorescence; growth inhibition, % (concentration not given with the values); C. albicans CaCi-2 (fluconazole-resistant clinical isolate) + fluconazole, 48 h; actives 0.57% (n = 300,000);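 active means most replicates above 75%; inconclusive means exactly half above 75%; inactive means most below 75%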;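 further: all wells also contain fluconazole at 8 µg/ml as a sub-toxic cotreatment; 0% = median of DMSO wells and 100% = median of geldanamycin control wells; wells of about 8 µL received 7.5 nL stock; the first replicate is given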
LANA-H2A inh = blockers of LANA interaction with H2A/H2B – biochemical, FP readout, HTS, primary screen; Protein LANA1 (Human herpesvirus 8 type P (isolate GK18)), Q9QR71; cell-free LANA-H2A/H2B peptide, fluorescence polarization; inhibition, % (concentration not given with the values); actives 0.6% (n = 320,000); AID 2629, 2010; in the data active means inhibition mostly above about 10%, no sharp cut-off; inactive means mostly below about 6.7%;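 further: stock transfer was 7.5 nL into about 10 µL; 0% = median of vehicle wells and 100% = median of positive control wells; one replicate is shown; the record names a cut of 25% in any replicate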
Target sequence (Q9QR71 whole entry, looked up): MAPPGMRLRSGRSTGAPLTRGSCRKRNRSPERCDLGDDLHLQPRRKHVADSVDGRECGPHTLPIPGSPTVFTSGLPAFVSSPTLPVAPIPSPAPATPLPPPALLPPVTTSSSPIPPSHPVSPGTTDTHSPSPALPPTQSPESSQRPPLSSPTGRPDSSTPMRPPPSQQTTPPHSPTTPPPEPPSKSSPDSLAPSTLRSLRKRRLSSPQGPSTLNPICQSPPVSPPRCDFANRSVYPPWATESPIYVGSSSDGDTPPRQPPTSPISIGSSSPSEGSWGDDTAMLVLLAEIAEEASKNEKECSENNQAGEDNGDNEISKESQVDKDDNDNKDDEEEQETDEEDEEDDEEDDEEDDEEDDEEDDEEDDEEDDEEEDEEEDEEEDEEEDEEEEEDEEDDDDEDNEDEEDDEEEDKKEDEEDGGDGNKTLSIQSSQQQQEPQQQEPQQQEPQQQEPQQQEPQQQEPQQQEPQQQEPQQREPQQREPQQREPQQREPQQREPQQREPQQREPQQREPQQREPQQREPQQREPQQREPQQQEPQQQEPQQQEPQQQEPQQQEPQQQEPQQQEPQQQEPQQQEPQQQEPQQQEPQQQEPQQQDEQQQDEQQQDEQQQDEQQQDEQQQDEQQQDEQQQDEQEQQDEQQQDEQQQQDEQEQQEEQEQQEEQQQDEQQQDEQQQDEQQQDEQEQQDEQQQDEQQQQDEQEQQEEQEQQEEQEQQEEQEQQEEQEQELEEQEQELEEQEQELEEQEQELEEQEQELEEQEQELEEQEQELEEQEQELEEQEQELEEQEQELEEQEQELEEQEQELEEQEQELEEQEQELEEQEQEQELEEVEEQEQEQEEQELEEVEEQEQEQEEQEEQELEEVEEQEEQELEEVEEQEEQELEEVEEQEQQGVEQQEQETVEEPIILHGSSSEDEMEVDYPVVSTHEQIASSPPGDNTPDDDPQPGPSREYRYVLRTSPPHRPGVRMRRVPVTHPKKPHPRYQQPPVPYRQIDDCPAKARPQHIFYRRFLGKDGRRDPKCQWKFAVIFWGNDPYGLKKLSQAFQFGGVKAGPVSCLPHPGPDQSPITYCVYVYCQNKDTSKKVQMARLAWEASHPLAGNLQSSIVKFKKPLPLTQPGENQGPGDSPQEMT
Bfl-1 A1 inh = caspase 3/7 activation in MEF A1-2A-BIM cells, primary screen, A1 inhibitor project, cell-based, luminescence, HTS | caspase activation, % (no concentration beside the values) | Caspase-Glo 3/7 luminescence, 3 h; percent of clofoctol response, vehicle zero | actives 0.066% (n = 330,000);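 active means over half of replicate activation scores above 10%, or exactly half above 10 with the replicate mean above 10; inconclusive means replicate mean below 10 yet half the replicates above 10; inactive means over half of replicates below 10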;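 further: wells of about 30 µL received 50 nL stock; many hits fall short of the cut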
Starred values were filed as active, the others as inactive; u = inconclusive; x = no result given; & = joins results of further samples.

SMILES	RanGTP-Imp inh	MLL AF4-AF9 inh	Vif TR-FRET	Beta apoptosis	T cruzi repl	Calb FLC	LANA-H2A inh	Bfl-1 A1 inh
COc1ccc(N2CCN(C(=O)CSc3nnc4n3C(C)(C)Cc3ccccc3-4)CC2)cc1	-1.8	x	3%	6	36	-1	-3.2	0.8
COc1cc(C2C(C#N)=C(N)N(Nc3ccccc3)C3=C2C(=O)CC(C)(C)C3)ccc1OCc1cccc(F)c1 (stereo not drawn)	7.9	x	4%	-3	38	-2	-3.4	-0.4
Cc1ccc(S(=O)(=O)C2(C(=O)Nc3cccc(F)c3)CC2)cc1	0.2	0.7	73%	x	3	-6	1.4	0.8
Cc1ccc(S(=O)(=O)n2cc(-c3ccccc3)c3ccccc32)cc1	x	-0.9	x	15	x	x	-2.0	u
CC(=O)c1cc2c(cc1NS(=O)(=O)c1ccccc1C)OCO2	13	1.8	3%	x	-9	17	-2.2	1.3
COc1c(C)cc(NC(=O)c2ccc3c(c2)NC(=O)CO3)cc1C	3.5	-1.0	-2%	x	-11	36	-0.5	0.8
Nc1nonc1-n1nnc(C(=O)N/N=C/c2cccc(Cl)c2)c1-c1ccc2c(c1)OCO2	0.4	-2.2	x	-4	-20	-1	3.9	0.7
Cc1ccc(NC(=O)c2ccc3snnc3c2)cc1	3.7	-0.8	-6%	9	-12	u	-1.3	0.0
Cc1ccc(-c2nn(CC(=O)N3CCOCC3)c(=O)c3ccccc23)cc1S(=O)(=O)N(C)C	-0.5	8.1	12%	2	13	6	-2.7	0.1
COc1cc(C(=O)NC(=S)Nc2ccccc2N2CCOCC2)cc(OC)c1OC	0.3	7.2	x	17	14	5	0.2	-0.3
CSCCC(C(=O)OCC(=O)c1ccc(C)c(C)c1)N1C(=O)c2ccccc2C1=O (stereo not drawn)	-3.4	-1.4	1%	1	-5	-1	6.5	0.1
COc1ccc(NC(=S)N/N=C2/CCCc3c(C)cc(C)cc32)cc1	-4.3	x	0%	-13	3	7	-2.0	1.5
C/C(=N/NC(=O)CN1CCN(S(=O)(=O)c2ccc(Br)cc2)CC1)c1cccnc1	1.0	x	x	-4	-6	-3	-2.9	0.1
CC1(C)Cc2cccc(OCC(=O)NCc3ccc(F)cc3)c2O1	x	-1.0	3%	-1	x	x	6.9	-0.1
COc1ccc(N(C)S(=O)(=O)c2cccc(C(=O)Nc3ccc(OC)nc3)c2)cc1	-2.9	0.2	-7%	1	-3	15	3.0	1.1
O=C(OCC(=O)c1c[nH]c2ccccc12)c1cncc(Br)c1	x	0.4	x	-1	x	x	-4.5	0.4
O=c1nc(Nc2ccc(OCc3ccccc3)cc2)sc2ncccc12	-1.0	-25	-10%	-4	5	-3	2.4	0.2
Cc1noc(C)c1COc1ccc(C(=O)Nc2ncccc2O)cc1	-0.9	0.5	-8%	x	-5	6	-1.3	0.1
CCOC(=O)C(CC)Sc1ccc2nnc(CCNS(=O)(=O)c3ccccc3)n2n1 (stereo not drawn)	2.1	-1.1	u	-1	-5	2	2.5	1.2
CCOC(=O)c1cc2ccc3ccccc3c2s1	4.6	x	-4%	-1	-2	-6	0.7	0.4
CCOC(=O)C1(Cc2cccc(OC)c2)CCN(Cc2cccnc2)CC1	56*	1.2	-5%	x	-6	-3	4.7	0.1
COc1ccc(NC(=O)NNC(=O)COc2cc(C)c(Cl)c(C)c2)c(OC)c1	2.0	-3.3	x	-5	8	1	-5.2	-0.1
O=[N+]([O-])c1cc([N+](=O)[O-])c(Oc2cccnc2Br)cc1NN1CCCCC1	-0.4	x	x	-1	-4	2	0.8	-0.4
CCSc1n[nH]c(=O)[nH]c1=O	3.0	x	22%	-3	2	-5	-3.0	1.3
OCC[C@H]1C[C@H](O)[C@@H](O)[C@]2(OCCc3ccccc32)O1	x	-5.6	x	-6	x	x	7.3	0.1
Cc1ccc2nc(-c3ccc4c(c3)OCCO4)cc(C(=O)O)c2c1	-2.7	x	-1%	2	-12	x	-4.0	0.3
COc1ccc(Cl)cc1N(CC(=O)NC(C(C)C)C(C)C)S(C)(=O)=O	2.0	x	-2%	-6	-8	2	1.4	-0.2
Cc1ccccc1-c1cc(C(=O)N2CCCC2)c2ccccc2n1	x	-2.7	14%	-10	-11	x	-2.6	0.7
CCOC(=O)c1sc2nc(SCC#N)n(CCCN3CCCC3=O)c(=O)c2c1C	-1.9	x	16%	x	33	-7	x	x
CCCCn1c(=O)nc2n(-c3ccc(C)cc3)c3ccccc3cc-2c1=O	60*	-70	-2%	14	-11	-2	4.9	0.9
O=C(Cc1ccccc1)Nc1nc(=O)c2ccccc2s1	4.4	x	-3%	-1	0	u	-3.8	0.2
O=C(CSc1ccc([N+](=O)[O-])cn1)Nc1ccc(N2CCOCC2)c(Cl)c1	0.1	2.7	-2%	9	29	15	-1.2	-0.8
Cc1cccc(NC(=S)NC23CN4CN(CN(C4)C2)C3)c1	u	14	19%	-1	-14	4	-2.0	-0.5
C=CCC[C@@H](Cc1ccc(F)cc1)C(=O)OC[C@@H](NC(=O)[C@@H](CC=C)CC(=O)N[C@@H](CO)Cc1ccccc1)C(C)(C)C	x	0.3	x	2	x	x	-2.0	1.1
CCNC(=O)COC(=O)/C=C/c1cccc(F)c1	1.9	-2.4	-6%	0	-3	-9	-4.5	-0.4
C/C(=N/NC(=O)CNS(=O)(=O)c1ccc(C)cc1)c1cccc([N+](=O)[O-])c1	u	-0.2	3%	-4	-8	u	3.3	-0.3
CN(C)c1ccc(/C=N/NC(=O)c2nnn(-c3nonc3N)c2CN(C)c2ccccc2)cc1	7.7	3.0	x	3	-4	u	-6.5	-1.4
Cc1ccsc1/C=C/c1ccc2cccc(O)c2n1	-6.3	x	24%	22	22	29	0.3	-5.9
CCOc1ccc(NC(=O)C(C)SC(N)=O)cc1 (stereo not drawn)	u	-26	68%	-4	-23	6	0.4	0.1
O=C1/C(=C/c2ccc(C(=O)O)cc2)CCC/C1=C\c1ccc(C(=O)O)cc1	8.0	x	x	0	-18	-14	1.0	-0.1
Cc1ccc(C(=O)N/C(=C/c2ccc(-c3ccc(Br)cc3)o2)C(=O)NC2CCS(=O)(=O)C2)cc1 (stereo not drawn)	-3.7	1.8	15%	-3	0	-4	-1.7	0.2
COc1ccc(CN(C)C(=O)C2CCN(C(=O)Nc3ccccc3)CC2)cc1OC	x	-2.6	-6%	-1	x	x	4.0	0.5
COc1cn(-c2ccccc2)nc1C(=O)OCC(=O)Nc1ccc(C)c(C)c1	x	3.0	8%	-2	x	x	-9.3	-1.0
CCOC(=O)C1=C(C)NC(=O)C(C(N)=O)C12CCCCC2 (stereo not drawn)	-6.6	x	1%	1	-25	-9	8.8	-0.7
CCOC(=O)C1CCCN(c2cc(=O)n(-c3ccccc3Cl)c(=O)[nH]2)C1 (stereo not drawn)	7.9	3.1	-5%	-6	2	5	-6.6	0.4
COCCn1c(C)cc(C2=NNC(=Nc3ccc(F)cc3)SC2)c1C	0.9	6.2	2%	x	-1	-1	0.3	1.1
CCOC(=O)C1=C(CNC(C)(C)CC(C)(C)C)NC(=O)NC1c1cccc([N+](=O)[O-])c1 (stereo not drawn)	-3.6	8.1	x	-2	16	0	-2.5	0.2
CC(=O)Nc1ccc(NC(=O)CSc2nc3ccccc3nc2N2CCC(C)CC2)cc1	-4.7	-16	-8%	4	30	18	9.9	0.1
Cc1cc(SCC(=O)N/N=C/c2ccc(O)c(O)c2O)c(C)cc1Br	-1.7	x	13µM*	33	28	107*	4.7	0.8
O=C(Nc1c(-c2ccccc2)nc2ccccn12)c1cccs1	2.3	x	31%	-10	5	14	-0.8	1.2
Cc1noc(C)c1-c1csc(N2CCC(C(N)=O)CC2)n1	x	-0.5	x	-11	x	x	-5.0	-0.3
CCCC(=O)NC(C)c1nc2ccccc2n1C(C)C (stereo not drawn)	6.7	-4.7	3%	-4	5	5	-0.8	-0.2
COc1ccc(-c2cc(C(=O)N3CCN(c4ccccc4O)CC3)c3ccccc3n2)cc1OC	-0.8	-3.4	x	1	3	3	-4.8	-0.9
COc1cc(C(=O)Oc2ccc3ccc(O)cc3c2)cc(OC)c1OC	0.4	-8.0	x	-3	6	3	-1.5	-1.0
Cc1ccc(CN2CCC(n3nccc3NC(=O)C3CCOC3)CC2)cc1C (stereo not drawn)	-2.5	-1.1	x	2	16	1	5.9	-0.4
CC/C(=C/c1ccccc1)c1cccc2[nH]c3c(OC)cccc3c12	u	11	x	45	17	5	4.7	0.3
COc1ccc(NS(=O)(=O)c2ccc(N3CCCC3)c(N)c2)cc1	-2.6	9.5	x	48	5	0	3.2	-0.7
CCN1CCc2c(OCc3ccc(C(=O)OC)o3)cccc2C1=O	0.8	0.6	-9%	0	-5	7	-1.4	-0.3
COc1ccc(S(=O)(=O)Nc2ccc(N(C)C(C)=O)cc2)cc1	-1.4	x	0%	1	-21	-18	-8.5	0.5
O=C1C(=O)N(Cc2ccccc2)C(c2cccc(O)c2)/C1=C(\O)c1ccc2c(c1)OCCO2 (stereo not drawn)	4.4	0.7	x	-6	-7	-9	1.2	-0.9
Other structures:
SMILES	RanGTP-Imp inh	MLL AF4-AF9 inh	Vif TR-FRET	Beta apoptosis	T cruzi repl	Calb FLC	LANA-H2A inh	Bfl-1 A1 inh
Cc1ccc(S(=O)(=O)N(C)C)cc1NC(=O)c1ccc2ccccc2n1	5.3	2.0	x	0	12	36	-1.0	-0.1
Cc1ccc(C(=O)c2c[nH]c3c(F)cc(F)cc3c2=O)cc1	4.1	x	-110%	3	-24	47	-1.4	-0.9
COc1ccc(Oc2ccc(N/C=C/C(=O)C(C)(C)C)cc2)cc1	6.4	-1.4	x	2	-3	2	2.5	-0.3
C#CCNC(=O)C1=C[C@H](c2ccc(C(F)(F)F)cc2)C[C@H](OCc2ccc(CO)cc2)O1	-1.2	-3.7&-2.7	x	2	8	-20	1.9	-1.1
O=C(O)CSCC(=O)N1N=C2/C(=C/c3ccccc3)CCCC2C1c1ccccc1 (stereo not drawn)	2.3	1.4	x	-4	4	23	1.9	0.5
O=C(CSc1nc2ccccc2c(=O)[nH]1)Nc1cccc([N+](=O)[O-])c1	3.4	-0.8	-6%	12	6	1	8.4	-0.4
O=C(O)CC(NC(=O)Cc1ccccc1)c1ccccc1 (stereo not drawn)	-0.9	-1.7	x	-4	3	-1	2.9	-0.7
CN(C(=O)COC(=O)c1ccc(S(=O)(=O)N2CCOCC2)cc1)c1ccccc1	x	-1.1	-7%	-1	x	x	1.9	-0.1
O=C(COC(=O)C1(c2ccccc2)CC1)N1CCN(c2ccc(F)cc2)CC1	1.7	x	3%	4	-3	-6	-4.1	-1.7
CCOC(=O)N1CCN(S(=O)(=O)c2ccc(C(=O)N(CCN(C)C)c3nc4c(C)cccc4s3)cc2)CC1	1.1	1.6	x	-2	54	-1	2.7	1.0
